# StopGo reporter: High Throughput Screening for Foot and Mouth Disease Virus Antivirals; 410,000 compounds, 1.2% hits; Potency, µM (titrated, usually from 57.9 µM), for inactives: top-dose signal change, negative = less light; AID 1159524, 2015; human cells with a luciferase reporter of 2A StopGo recoding; control for the full effect not named in the record; active = well fitted falling curve with a large enough effect; inconclusive = small, poorly fitted or top-dose-only effect; inactive = no such curve, though single readings can be large or run the other way; tested in HEK293T cells; note: nearly all actives have a fitted effect of over 45% in size; luciferase light after 4 h
# Active calls of the source: *; ? = inconclusive; [ ] = dose if it differs, or a comment. % is set by controls: 0 for no effect and ±100 for the full control effect; potency is the fitted concentration of half-maximal effect. A portion of the library; rates above refer to the full screens.
Cn1cnc2c(ncn2[C@@H]2O[C@H](CO)[C@@H](O)[C@H]2O)c1=N
  StopGo reporter = 21%
Cc1cc(C)n(-c2ccc(C(=O)NCC3Cc4cc(-c5cnccn5)ccc4O3)cc2)n1 (stereo not drawn)
  StopGo reporter = ?
COc1cccc(CNc2ncnc3sc(C(=O)N4CC5CCC4C5)c(C)c23)c1OC (stereo not drawn)
  StopGo reporter = 2%
COc1cccc(CNC(=O)c2cnn(-c3ncc4c(n3)-c3ccccc3CCC4)c2C)c1OC
  StopGo reporter = 43%[activator]
CCC1CN(CC(=O)NC(c2ccccn2)C(F)(F)F)Cc2cc(OC)ccc2O1 (stereo not drawn)
  StopGo reporter = -8%
Cc1nn(-c2ccccc2)c(C)c1CC(=O)NCC1Cc2cc(-c3cncnc3)ccc2O1 (stereo not drawn)
  StopGo reporter = -11%
Cc1cnc(-n2ncc(C(=O)NCCc3cccnc3)c2C)nc1-c1cccs1
  StopGo reporter = -5%
Cc1cc(CNC(=O)c2cnn(-c3nccc(-c4cc(C)sc4C)n3)c2C2CC2)on1
  StopGo reporter = 46%[activator]
CCN(Cc1ccncc1)Cc1ccc2c(c1)CN(C(=O)c1ccc(C)cc1)CCO2
  StopGo reporter = -8%
COC(=O)[C@@H]1CCCN1C(=O)c1c(OC)cc(=O)n2c1CCN(Cc1c(C)[nH]c3ccccc13)CC2
  StopGo reporter = 14%

O=C1NN(C(=O)Nc2ccc(Br)cc2)C(c2ccccc2)C1c1ccccc1 (stereo not drawn)
  StopGo reporter = 24%
O=NN1CCCC1c1cccnc1 (stereo not drawn)
  StopGo reporter = -9%
Cc1cc(-c2ccnc(-n3ncc(C(=O)NCC4CCCN(C)C4)c3C3CC3)n2)c(C)s1 (stereo not drawn)
  StopGo reporter = -3%
Cc1nc2cc(NC(=O)[C@@H]3C[C@@H](Sc4ccccn4)CN3Cc3ccccc3)ccc2s1
  StopGo reporter = 21%
O=C(NCc1ccccn1)c1cnn(-c2ncc3c(n2)-c2ccccc2CC3)c1C1CC1
  StopGo reporter = -12%
CCN(Cc1ccncc1)Cc1ccc2c(c1)CN(C(=O)c1ccc(C#CC(C)(C)O)o1)CCO2
  StopGo reporter = -11%
Cc1cc(C)n(-c2cccc(C(=O)NCC3Cc4cc(Cl)cc(-c5cnccn5)c4O3)c2)n1 (stereo not drawn)
  StopGo reporter = -18%
CCC1CN(CCNC(=O)c2ccc3c(c2)OCO3)Cc2cc(OC)ccc2O1 (stereo not drawn)
  StopGo reporter = 47%[activator]
Cc1ccc(CN2CCC(=O)N(Cc3ccccn3)CC2)c(C)c1
  StopGo reporter = -12%
C[C@@H](Cc1ccccc1)Nc1ncnc2c1ncn2[C@@H]1O[C@H](CO)[C@@H](O)[C@H]1O
  StopGo reporter = 19%

COc1cc(CN2CCCC(n3cc(C(=O)N4CCCCC4)nn3)C2)cc(OC)c1 (stereo not drawn)
  StopGo reporter = -11%
CC(=O)N1CCC[C@H]1C(=O)NCC1Cc2cc(-c3cnccn3)cc(Cl)c2O1 (stereo partly drawn)
  StopGo reporter = 2%
C[C@@H]1CN(Cc2ccc3c(c2)CN(Cc2cccn2-c2ccccn2)CCO3)C[C@H](C)O1
  StopGo reporter = -8%
C[C@@H]1CN(Cc2ccc3c(c2)CN(Cc2cccc(O)c2)CCO3)C[C@H](C)O1
  StopGo reporter = -26%
Cc1occc1C(=O)Nc1cccc(-c2nc(CNC(=O)c3cccc(C#CC(C)(C)O)c3)c(C)o2)c1
  StopGo reporter = 20µM*
CSc1ccccc1C(=O)NCc1nc(-c2cccc(NC(=O)c3ccoc3C)c2)oc1C
  StopGo reporter = 32µM*
COc1ccc(CN2CCC3(CC2)c2ccccc2[C@@H](NC(=O)c2ccccc2)[C@@H]3O)cc1O
  StopGo reporter = 4%
COc1cc(CN2CCC3(CCC(CNC(=O)c4cc(C)nn4C)O3)CC2)ccc1F (stereo not drawn)
  StopGo reporter = 3%
COc1cc(CN2CCOc3ccc(C(O)c4cccnc4)cc3C2)cc(OC)c1 (stereo not drawn)
  StopGo reporter = -11%
COC(=O)[C@@H]1C[C@@H](NC(=O)c2ccc(C(F)(F)F)cc2)CN1Cc1cccc(O)c1
  StopGo reporter = 10%

O=C(CCn1cncn1)NCC1Cc2cc(-c3ccsc3)cc(Cl)c2O1 (stereo not drawn)
  StopGo reporter = 3%
COc1cc(C)c(CN2CCc3nnc(C(C)NC(=O)c4cc(F)ccc4F)n3CC2)cc1C (stereo not drawn)
  StopGo reporter = -16%
Cn1c(SCC2CCCO2)nnc1C1CCN(Cc2ccccc2O)CC1 (stereo not drawn)
  StopGo reporter = -16%
COc1cc(C)c(CN2CCC3(CCC(CNC(=O)c4ccnn4C)O3)CC2)cc1C (stereo not drawn)
  StopGo reporter = 2%
Cc1cccc(CN2C[C@H](Sc3ccccn3)C[C@H]2C(=O)Nc2ccc3sc(C)nc3c2)c1
  StopGo reporter = -8%
CCc1nn2c(=O)c(F)c(N3CCNCC3)nc2s1
  StopGo reporter = -17%
C[C@@H]1CN(Cc2ccc3c(c2)CN(C(=O)c2ccc(Oc4ccccc4)o2)CCO3)C[C@H](C)O1
  StopGo reporter = -16%
Cc1ccc(C(=O)Nc2cccc(-c3nc(CNC(=O)C4CCCCC4)c(C)o3)c2)s1
  StopGo reporter = 30%[activator]
COc1ccc(C(=O)NCc2nc(-c3ccccc3NC(=O)c3cc(C)oc3C)oc2C)cc1F
  StopGo reporter = 3%
COc1ccccc1C1CN(CCNC(=O)C2=CCCC2)Cc2ccccc2O1 (stereo not drawn)
  StopGo reporter = 34%[activator]

COc1ccc(OC)c(CN2CCCC(n3cc(C(=O)N4CCCCC4)nn3)C2)c1 (stereo not drawn)
  StopGo reporter = -4%
C[C@H](N)CCP(=O)(O)O
  StopGo reporter = -25%
Cc1ccc(Nc2nc(NCCO)nc(N3CCCC3)n2)cc1
  StopGo reporter = -16%
CCCC(=O)NCCc1c(I)[nH]c2ccc(OC)cc12
  StopGo reporter = 1%
COc1cc(-c2c(OC)cccc2OC)cc2c1OCCN(C(=O)CCn1nc(C)cc1C)C2
  StopGo reporter = -19%
CC(=O)Nc1ccccc1-c1nc(CNC(=O)c2ccc(-n3cccn3)cc2)c(C)o1
  StopGo reporter = 9%
Cc1cc(S(=O)(=O)NCc2nc(N3CCCC3)c3cc(Cl)ccc3n2)c(C)s1
  StopGo reporter = -10%
Cc1ccn(CCC(=O)NCC2Cc3cc(Cl)cc(-c4ccc5[nH]ccc5c4)c3O2)n1 (stereo not drawn)
  StopGo reporter = -2%
CC(C)C(N)C(=O)O (stereo not drawn)
  StopGo reporter = -10%
COc1cc2c(c(OC)c1OC)-c1ccc(C(=O)O)cc1[C@@H](NC(C)=O)CC2
  StopGo reporter = -3%

Cc1cc(C(=O)Nc2ccccc2-c2nc(CNC(=O)C3COc4ccccc4O3)c(C)o2)c(C)o1 (stereo not drawn)
  StopGo reporter = 9%
Cc1c(C(=O)NCCCc2ccncc2)cnn1-c1ncc2c(n1)-c1ccccc1CC2
  StopGo reporter = -10%
COC(=O)C1CCCCN1Cc1ccc2c(c1)CN(Cc1cnn(-c3ccccc3)c1)CCO2 (stereo not drawn)
  StopGo reporter = ?
Oc1cc(-c2nc3ccccc3s2)cc2c1OCCN(Cc1cccn1-c1ncccn1)C2
  StopGo reporter = 37%[activator]
CC(N)(C(=O)O)c1ccc(-c2nn[nH]n2)cc1 (stereo not drawn)
  StopGo reporter = -10%
CC1(C)c2[nH]c3ccccc3c2C[C@@H]2C(=O)N(c3ccc(F)cc3F)C(=O)N21
  StopGo reporter = ?
Fc1ccc(N2CCN(Cc3ccc4c(c3)CN(Cc3cccn3-c3cccnc3)CCO4)CC2)cc1
  StopGo reporter = ?
Cc1ccc2nc(SCC(=O)N3CCC4(CC3)CC4C(=O)Nc3ccc(F)c(F)c3)[nH]c2c1 (stereo not drawn)
  StopGo reporter = -4%
CN(CCc1ccc(Cl)c(Cl)c1)[C@@H]1CCCC[C@@H]1N1CCCC1
  StopGo reporter = -17%
C=C(C)[C@H]1O[C@H]2CC[C@@]3(C)[C@@](O)(CC[C@H]4[C@@H]5OC(C)(C)[C@H]6C[C@@H]7C(=C)Cc8c(Cl)cc9[nH]c(c5c9c8[C@@]76O)[C@@]43C)[C@]23O[C@@H]3[C@H]1O
  StopGo reporter = 4%[39.8 µM]

# 3 consecutive entries already listed, quoted:
Cc1ccc2nc(SCC(=O)N3CCC4(CC3)CC4C(=O)Nc3ccc(F)c(F)c3)[nH]c2c1 (stereo not drawn)
  StopGo reporter = -4%
CN(CCc1ccc(Cl)c(Cl)c1)[C@@H]1CCCC[C@@H]1N1CCCC1
  StopGo reporter = -17%
C=C(C)[C@H]1O[C@H]2CC[C@@]3(C)[C@@](O)(CC[C@H]4[C@@H]5OC(C)(C)[C@H]6C[C@@H]7C(=C)Cc8c(Cl)cc9[nH]c(c5c9c8[C@@]76O)[C@@]43C)[C@]23O[C@@H]3[C@H]1O
  StopGo reporter = 4%[39.8 µM]

# Other structures:
CCC1C(=O)NCCN1Cc1ccc2c(c1)CN(Cc1cc(OC)ccc1OC)CCO2 (stereo not drawn)
  StopGo reporter = -14%
Cc1ncc2c(c1CNC(=O)c1cncs1)CCN(C(=O)c1ccsc1)C2
  StopGo reporter = -14%
O=C(NCc1nnc2n1CCN(Cc1cc3c(cc1Cl)OCO3)CC2)C1CCOC1 (stereo not drawn)
  StopGo reporter = -2%
c1cncc(C2CCCN2)c1 (stereo not drawn)
  StopGo reporter = 5%
CC(C)C(NC(=O)c1ccccn1)c1nnc2n1CCN(Cc1ccc3ccccc3c1)CC2 (stereo not drawn)
  StopGo reporter = -20%
S=C(NCCCCN(Cc1ccc(Cl)cc1)c1ccc(Br)cn1)NCCCc1cnc[nH]1
  StopGo reporter = -19%
CCCC[C@@H](C)[C@@H](OC(=O)C[C@@H](CC(=O)O)C(=O)O)[C@H](C[C@@H](C)C[C@H](O)CCCC[C@@H](O)C[C@H](O)[C@H](C)N)OC(=O)C[C@H](CC(=O)O)C(=O)O
  StopGo reporter = 8%[39.8 µM]
CC(NC(=O)c1ccco1)c1nnc2n1CCN(Cc1ccc(N(C)C)cc1)CC2 (stereo not drawn)
  StopGo reporter = -4%
COc1ccccc1-c1ccnc(-n2ncc(C(=O)N(C)C(C)c3nc(C)cs3)c2C2CC2)n1 (stereo not drawn)
  StopGo reporter = 29%
Cc1cc(C)c(CN2CCC3(CCC(CNC(=O)c4ccn(C)n4)O3)CC2)cc1C (stereo not drawn)
  StopGo reporter = -13%

O=C(NCC1Cc2cc(F)cc(-c3cccnc3)c2O1)c1cnn(-c2ccccc2)c1 (stereo not drawn)
  StopGo reporter = -2%
CN(Cc1ccco1)C(=O)c1cc(NC(=O)C2CCC2)c2c(c1)nc(-c1ccncc1)n2C
  StopGo reporter = 1%
CCN1CCC(N[C@H]2C[C@@H](C(=O)NC)N(Cc3cccc4ccccc34)C2)CC1
  StopGo reporter = 6%
COCC(=O)Nc1cc(C(=O)N2CCN(C3CCCC3)C(=O)C2)c2c(c1)nc(-c1ccncc1)n2C
  StopGo reporter = -7%
CCc1cccc(CC)c1NC1=NCCN1
  StopGo reporter = -12%
CC(C)c1ccc(CN2CCC3(CCC(CNC(=O)c4ccn(C)n4)O3)CC2)cc1 (stereo not drawn)
  StopGo reporter = -12%
COc1ccccc1C(=O)N[C@@H]1c2ccccc2C2(CCN(Cc3nccs3)CC2)[C@H]1OC
  StopGo reporter = -14%
COc1cccc(C2(CC(=O)N3CCN(c4ccccc4O)CC3)CC(=O)N(C3CCCC3)C2=O)c1 (stereo not drawn)
  StopGo reporter = 30%
C#CCNC(=O)[C@H](Cc1ccc(C(=O)c2ccccc2)cc1)NC(=O)OC(C)(C)C
  StopGo reporter = -28%
Cc1c(C(=O)NCc2ccc3c(c2)OCO3)cnn1-c1ncc2c(n1)-c1ccccc1CC2
  StopGo reporter = 47%[activator]

C[N+]1([O-])CCC[C@@H]1c1cccnc1 (stereo partly drawn)
  StopGo reporter = 1%
COc1ccc(C(=O)NCCN2Cc3ccccc3OC(c3ccsc3)C2)c(OC)n1 (stereo not drawn)
  StopGo reporter = -10%
COc1cccc(CN2CCC3(CC2)c2ccccc2[C@@H](NC(=O)c2ccccc2OC)[C@@H]3O)c1
  StopGo reporter = ?
CSc1nc(C(=O)N2CCOc3ccc(CN4CCN(Cc5ccccn5)CC4)cc3C2)cs1
  StopGo reporter = 40%[activator]
Cc1ncc2c(c1CNC(=O)c1ccc3c(c1)OCO3)CCN(C(=O)/C=C/c1ccccc1Cl)C2
  StopGo reporter = -5%
CC(=O)Nc1ccccc1-c1nc(CNC(=O)c2cccc(-n3cccn3)c2)c(C)o1
  StopGo reporter = ?
Cc1ccccc1CN1C(=O)[C@H]2Cc3c([nH]c4ccccc34)C(C)(C)N2C1=O
  StopGo reporter = ?
CC(C)c1nc2cccnc2n1C1CCN(C(=O)Cn2cccn2)CC1
  StopGo reporter = -12%
COCC(=O)Nc1cc(C(=O)N2CC3CCC2C3)c2c(c1)nc(-c1ccncc1)n2C (stereo not drawn)
  StopGo reporter = -3%
Cc1c(C(=O)NCC2(c3ccccc3)CCOCC2)cnn1-c1nccc(-c2ccco2)n1
  StopGo reporter = 42%[activator]
Cc1nc2ccccc2nc1CN1CCOc2ccc(C3(O)CCN(c4ccccc4F)CC3)cc2C1
  StopGo reporter = ?

# Molecules listed so far with an aryl thioether with sulfur outside any ring:
Cc1nc2cc(NC(=O)[C@@H]3C[C@@H](Sc4ccccn4)CN3Cc3ccccc3)ccc2s1
  StopGo reporter = 21%
CSc1ccccc1C(=O)NCc1nc(-c2cccc(NC(=O)c3ccoc3C)c2)oc1C
  StopGo reporter = 32µM*
Cn1c(SCC2CCCO2)nnc1C1CCN(Cc2ccccc2O)CC1 (stereo not drawn)
  StopGo reporter = -16%
Cc1cccc(CN2C[C@H](Sc3ccccn3)C[C@H]2C(=O)Nc2ccc3sc(C)nc3c2)c1
  StopGo reporter = -8%
Cc1ccc2nc(SCC(=O)N3CCC4(CC3)CC4C(=O)Nc3ccc(F)c(F)c3)[nH]c2c1 (stereo not drawn)
  StopGo reporter = -4%
CSc1nc(C(=O)N2CCOc3ccc(CN4CCN(Cc5ccccn5)CC4)cc3C2)cs1
  StopGo reporter = 40%[activator]

# Screening results from PubChem.
